Screening data as filed in PubChem BioAssay.
VCAM-1 imaging: suppression of endothelial VCAM-1 upregulation – imaging, high-content imaging, pooled HUVEC, TNFa stimulus (AID 456); 10,000 tested, 0.2% active; inhibition, % at 5 µM, or IC50 in µM where a hit was titrated; HUVEC TNFa-induced VCAM-1 surface expression, immunofluorescence imaging; numbers were filed only for top-ranked candidate wells;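 active = top tenth filtered wells with inhibition above zero that passed visual or statistical confirmation; inactive = the rest, including hits rejected on review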;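 note: 0% = stimulated vehicle wells and 100% = unstimulated cells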
FPR ligand: human FPR ligand, with FPRL1 counter-screen; P21462; FPR-expressing cells, fluorescent ligand binding, flow cytometry; inhibition, %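 (tested at 6.7 µM)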; 24,000 tested, 0.74% active;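 note: 0% = buffer wells and 100% = receptor blocker peptide wells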
Target sequence (P21462 whole entry, looked up): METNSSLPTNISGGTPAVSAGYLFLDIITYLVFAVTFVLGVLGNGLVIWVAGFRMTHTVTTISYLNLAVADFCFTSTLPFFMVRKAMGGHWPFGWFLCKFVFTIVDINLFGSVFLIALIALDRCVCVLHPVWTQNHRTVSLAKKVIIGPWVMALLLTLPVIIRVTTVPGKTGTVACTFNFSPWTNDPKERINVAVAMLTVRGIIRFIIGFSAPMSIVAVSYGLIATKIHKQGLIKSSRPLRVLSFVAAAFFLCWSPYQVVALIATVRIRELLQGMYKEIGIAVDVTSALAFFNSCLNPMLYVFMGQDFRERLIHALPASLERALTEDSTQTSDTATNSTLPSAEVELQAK
VCAM-1 up imaging: boosters of cytokine-driven VCAM-1 levels – imaging, high-content imaging, pooled HUVEC, TNFa stimulus (AID 457). calls only. Pooled HUVEC, TNFa-induced VCAM-1 immunofluorescence imaging; hits of this screen are not shown here. 10,000 tested, 0.2% active;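 active = a top-ranked rise in VCAM-1 staining upheld on image or statistical review; inactive = the rest, including candidates rejected on review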;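 note: compounds tested at 5 µM in the well; cells exposed to compound for 24 hours before fixing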
FPRL1 ligand: ligands of human FPRL1, also counter-screen for FPR ligands; inhibition, %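 (tested at 6.7 µM)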; AID 441; 24,000 tested, 0.3% active; FPRL1-expressing cells, fluorescent ligand binding inhibition, flow cytometry; P25090;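 note: 0% = buffer alone and 100% = receptor blocker peptide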
Target sequence (P25090 whole entry, looked up): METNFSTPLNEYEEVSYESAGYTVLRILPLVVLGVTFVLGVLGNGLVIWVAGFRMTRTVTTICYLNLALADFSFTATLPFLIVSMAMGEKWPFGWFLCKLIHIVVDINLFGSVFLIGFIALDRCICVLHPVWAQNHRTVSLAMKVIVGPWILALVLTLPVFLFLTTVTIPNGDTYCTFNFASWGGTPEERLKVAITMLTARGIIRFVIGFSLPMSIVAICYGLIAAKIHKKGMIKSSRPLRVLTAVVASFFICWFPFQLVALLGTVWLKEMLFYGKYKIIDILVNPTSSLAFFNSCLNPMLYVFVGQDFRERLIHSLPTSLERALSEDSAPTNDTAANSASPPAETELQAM
VCAM-1 inhibition: suppression of endothelial VCAM-1 upregulation – cell-based, plate reader, pooled HUVEC, TNFa stimulus (AID 454); HUVEC TNFa-induced VCAM-1 surface immunofluorescence, plate reader; numbers were filed only for top-ranked candidate wells; 10,000 tested, 0.2% active; inhibition, % at 5 µM;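 active = compound among top-ranked inhibitors of TNF-induced VCAM-1 adhesion protein staining, with the hit upheld by image or statistical review; inactive = the rest, including hits rejected on review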;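 note: 0% = TNFa with vehicle and 100% = cells without TNFa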
Numbers without * were called inactive; i = inactive; x = not tested or not shown.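 Rule for the calls, unless noted: active = mean above 30%; inconclusive = self-fluorescent; inactive = the rest.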 The list is partial (hit frequency here may not be typical).

SMILES | VCAM-1 imaging | FPR ligand | VCAM-1 up imaging | FPRL1 ligand | VCAM-1 inhibition
O=C(COc1ccccc1)N1CCN(C(=O)c2cccc(F)c2)CC1 | i | -4 | i | -6 | i
CC(C)CN(CC(C)C)S(=O)(=O)N1CCC(C(=O)NCc2ccc(F)cc2)CC1 | x | -5 | x | -1 | x
Cc1c(C(=O)OC(C)C)[nH]c2c1C(=O)CCC2 | i | -6 | i | -7 | i
COCc1cc(C)nc(SCC(=O)c2ccc(O)c(O)c2)c1C#N | x | -7 | x | 1 | x
COc1ccccc1NC(=O)c1ccc(COc2ccccc2OC)o1 | i | 6 | i | 0 | i
CC(c1cccnc1)N(CCN(C)C)C(=O)Nc1ccc(Cl)c(Cl)c1 (stereo unspecified) | x | -4 | x | -2 | x
O=C(NC1CCN(Cc2ccccc2)CC1)C1CCN(c2nnc(-n3cccc3)s2)CC1 | x | -4 | x | 2 | x
Fc1cc(F)c(F)c(SCCc2ccncc2)c1F | i | -9 | i | -10 | i
O=C(c1cc(-c2ccccc2O)on1)N1CCCC1 | x | -3 | x | -11 | x
CNC(=O)c1cccc(N2CCCC2=O)c1 | x | 2 | x | 6 | x
CCN1CCN(Cc2ccc(NC(=O)Nc3ccccc3)cc2)CC1 | i | -6 | i | -3 | i
CCOc1ccc(S(=O)(=O)Nc2ccc(Cl)cn2)c(C)c1C | i | 3 | i | 1 | i
CCCCC(=O)NC(Nc1nc(C2CC2)cs1)(C(=O)OCC)C(F)(F)F (stereo unspecified) | x | 1 | x | 0 | x
COc1ccccc1-c1nc2n(n1)C(c1ccc(Cl)cc1)C(C(N)=O)=C(C)N2 (stereo unspecified) | i | 10 | i | 4 | i
CN(CC(=O)NCc1cccs1)S(=O)(=O)c1cccc2cccnc12 | x | -3 | x | 6 | x
COc1ccc(CCNc2oc(-c3ccc(C)cc3)nc2C#N)cc1OC | x | 11 | x | 5 | x
O=C(NCc1ccco1)C1CCN(c2ccc(N3CCOCC3)nn2)CC1 | i | -8 | i | -3 | i
O=C(c1ccc(Br)o1)N(c1ccc(Br)cc1)C1C=CS(=O)(=O)C1 (stereo unspecified) | i | -2 | i | -1 | i
Cc1cccc(Cn2c(SCC(=O)Nc3ccccc3)nc3c2c(=O)[nH]c(=O)n3C)c1 | i | 11 | i | 6 | i
O=C(OCCN1C(=O)c2ccccc2C1=O)c1ccc(S(=O)(=O)N2CCCCCC2)cc1 | i | 5 | i | 0 | i
O=C(c1ccco1)N1CCN(c2nc3ccccc3c(=O)n2-c2ccccc2)CC1 | x | -2 | x | 10 | x
CCN(CC)C1CCCCC1NS(=O)(=O)c1ccc(Cl)cc1 (stereo unspecified) | i | 3 | i | 4 | i
O=C(Nc1nc(-c2cccs2)cs1)c1cccc(S(=O)(=O)N2CCCCC2)c1 | i | -4 | i | -8 | i
COc1ccc(/C(O)=C2\C(=O)C(=O)N(Cc3ccco3)C2c2ccc(OC)cc2OC)cc1 (stereo unspecified) | x | 38* | x | 27 | x
CC(=O)N1C(=O)C2(C(C#N)=C(N)Oc3n[nH]c(-c4ccccn4)c32)c2ccccc21 (stereo unspecified) | x | 0 | x | -10 | x
CCn1c(CCC(=O)Nc2nc3c(s2)CCCC3)nc2cc(S(=O)(=O)N(C)C)ccc21 | i | -4 | i | -6 | i
COC(=O)NC1CSCC1OC(=O)CCN1C(=O)c2ccccc2C1=O (stereo unspecified) | x | 1 | x | -16 | x
O=C(NCc1ccc(F)cc1)c1cc(-c2cccs2)on1 | x | -1 | x | -3 | x
CCOc1ccc(-n2ccnc2SCC(=O)NCc2ccc3c(c2)OCO3)cc1 | x | 4 | x | -2 | x
COc1ccc(S(=O)(=O)Cc2ccc(C(=O)NC(C)C)o2)cc1 | x | 0 | x | 2 | x

Nothing new here: entries from further up.
SMILES | VCAM-1 imaging | FPR ligand | VCAM-1 up imaging | FPRL1 ligand | VCAM-1 inhibition
CCOc1ccc(-n2ccnc2SCC(=O)NCc2ccc3c(c2)OCO3)cc1 | x | 4 | x | -2 | x
COc1ccc(S(=O)(=O)Cc2ccc(C(=O)NC(C)C)o2)cc1 | x | 0 | x | 2 | x

(continued)
SMILES | VCAM-1 imaging | FPR ligand | VCAM-1 up imaging | FPRL1 ligand | VCAM-1 inhibition
C#CCOC(=O)C1C2C=CC(C2)C1C(=O)O (stereo unspecified) | i | 5 | i | 2 | i
COc1ccc(NC(=O)CNS(=O)(=O)c2cccc3nonc23)c(OC)c1 | x | 3 | x | 2 | x
O=C(CSc1ccc2nnc(-c3ccccc3)n2n1)NCC1CCCO1 (stereo unspecified) | x | -3 | x | -1 | x
O=C(NCc1ccco1)c1ccc(CS(=O)(=O)c2cccc(C(F)(F)F)c2)o1 | x | -1 | x | 2 | x
CCOC(=O)CSc1nnc(CNC(=O)c2cccs2)n1CCc1ccccc1 | x | -3 | x | 2 | x
CCCCC(=O)N(c1ccc(OC)cc1)C1C=CS(=O)(=O)C1 (stereo unspecified) | x | -1 | x | 6 | x
CC1CN(c2nc3ccccc3nc2C(C#N)C(=O)NCc2ccc3c(c2)OCO3)CC(C)O1 (stereo unspecified) | i | 0 | i | 5 | i
COC(=O)Nc1ccc(C)c(NC(=O)OC)c1 | x | -3 | x | 4 | x
CCCOC(=O)c1ccc(OCC(O)Cn2c(C)nc3ccccc32)cc1 (stereo unspecified) | x | 6 | x | -3 | x
Cc1cccc(NC(=O)CCN2C(=O)C3C4C=CC(C4)C3C2=O)n1 (stereo unspecified) | x | -2 | x | 6 | x
CCOC(=O)Nc1ccc2c(c1)N(C(=O)OCCN(C)C)c1ccccc1CC2 | i | -5 | i | -1 | i
COc1ccccc1CNC(=O)C1CCCN(S(=O)(=O)c2cccc3cccnc23)C1 (stereo unspecified) | i | 1 | i | 0 | i
COc1ccc(CNc2oc(-c3ccccc3)nc2C#N)cc1 | i | -9 | i | -4 | i
COc1ccc(-c2nnnn2C)cc1S(=O)(=O)NCc1ccccc1 | i | -2 | i | 12 | i
CS(=O)(=O)c1ccc2nc(NC(=O)CCC(=O)c3cccs3)sc2c1 | i | 26 | i | 12 | i
COc1cc2[nH]c(=O)n(CCC(=O)NC3CCCC3)c(=O)c2cc1OC | x | -4 | x | -2 | x
COC(=O)c1c(C)nn(-c2ccccc2)c1N | x | 5 | x | 3 | x
Cc1nccn1S(=O)(=O)c1ccc(Br)cc1Br | x | 4 | x | 0 | x
COc1ccc(-c2[nH]nc3c2C(c2ccncc2)C(C#N)=C(N)O3)cc1 (stereo unspecified) | i | -6 | i | -3 | i
Nc1nnc(-c2cn(-c3ccccc3)nc2-c2ccccc2)o1 | i | 1 | i | 7 | i
CCCCCOC(=O)CSc1nnc(-c2ccccc2)c(=O)[nH]1 | x | -5 | x | 0 | x
COc1ccccc1C(=O)Nn1cnc2ccccc2c1=O | x | 2 | x | -11 | x
CCCc1[nH]nc2c1C(c1ccncc1)C(C#N)=C(N)O2 (stereo unspecified) | x | 18 | x | 7 | x
COCCN1C(=O)C(=O)/C(=C(/O)c2cccc(OC)c2)C1c1ccco1 (stereo unspecified) | x | 15 | x | -5 | x
Cc1nnc(SCCn2c(Br)nc3c2c(=O)n(C)c(=O)n3C)s1 | i | -3 | i | 2 | i
COc1ccc(N(CC(=O)Nc2nccs2)S(=O)(=O)c2c(C)nn(C)c2C)cc1 | x | -2 | x | 0 | x
CC(CCc1ccco1)NC(=O)c1cc2c(-c3ccccc3F)nn(C)c2s1 (stereo unspecified) | x | 3 | x | 1 | x
O=C1CSC(c2ccccn2)N1c1ccccc1 (stereo unspecified) | x | -8 | x | 14 | x
O=C(C1=C(O)C(=O)N(CCc2ccccc2)C1c1cccnc1)c1ccco1 (stereo unspecified) | x | 30 | x | -3 | x
C=CCSc1nc2c(c(=O)[nH]1)C(C(C)C)C(C#N)=C(N)O2 (stereo unspecified) | x | 9 | x | 1 | x
O=C(NCCCCNC(=O)c1cccnc1)c1cccnc1 | i | 11 | i | 8 | i
CCCNS(=O)(=O)c1ccc(OCC(=O)NCc2ccco2)cc1 | i | -6 | i | 0 | i
CC1CCc2nc(N)c(C#N)c(-c3cccnc3)c2C1 (stereo unspecified) | x | 0 | x | 5 | x
COc1ccc(OC)c(NC(=O)CSc2nnc(CNC(=O)COc3ccc(Cl)cc3)o2)c1 | x | -3 | x | 1 | x
CCc1ccc(N(CC(=O)NC2CCCCC2)S(=O)(=O)c2c(C)noc2C)cc1 | x | -13 | x | -14 | x
CCOC(=O)C1CCCN(C(=O)Cn2nc(CC)n3c(cc4sccc43)c2=O)C1 (stereo unspecified) | x | 9 | x | 1 | x
COc1nc(Oc2ccc(=O)n(C)n2)nc(N(C)C)n1 | i | -4 | i | 0 | i
CC(C)(C)C1CCc2onc(C(=O)NCc3ccc(F)cc3)c2C1 (stereo unspecified) | x | 0 | x | 1 | x
COc1ccccc1NC(=O)CSC1CC(=O)N(c2ccc3c(c2)OCO3)C1=O (stereo unspecified) | i | 1 | i | -6 | i
COc1ccc(C(CC(=O)O)NC(=O)Cc2ccccc2)cc1 (stereo unspecified) | x | 2 | x | -3 | x
CCCCCc1c(O)c2ccccc2[nH]c1=O | i | 2 | i | -1 | i
COc1ccc(CCN2CC34C=CC(O3)C(C(=O)NCc3ccccc3)C4C2=O)cc1OC (stereo unspecified) | x | -2 | x | 4 | x
COc1ccc(-n2c(Cc3cccn3C)nnc2SCC(=O)Nc2ccccc2C)cc1 | x | -2 | x | 2 | x
CCOC(=O)C(CC)n1cnc2c(cnn2-c2ccc(Cl)cc2)c1=O (stereo unspecified) | x | -7 | x | -12 | x
Nc1ccc(-n2c(N)c(C(=O)NCc3ccc4c(c3)OCO4)c3nc4ccccc4nc32)cc1 | i | 6 | i | 1 | i

Structural class: those above with a Cl atom.
SMILES | VCAM-1 imaging | FPR ligand | VCAM-1 up imaging | FPRL1 ligand | VCAM-1 inhibition
CC(c1cccnc1)N(CCN(C)C)C(=O)Nc1ccc(Cl)c(Cl)c1 (stereo unspecified) | x | -4 | x | -2 | x
CCOc1ccc(S(=O)(=O)Nc2ccc(Cl)cn2)c(C)c1C | i | 3 | i | 1 | i
COc1ccccc1-c1nc2n(n1)C(c1ccc(Cl)cc1)C(C(N)=O)=C(C)N2 (stereo unspecified) | i | 10 | i | 4 | i
CCN(CC)C1CCCCC1NS(=O)(=O)c1ccc(Cl)cc1 (stereo unspecified) | i | 3 | i | 4 | i
COc1ccc(OC)c(NC(=O)CSc2nnc(CNC(=O)COc3ccc(Cl)cc3)o2)c1 | x | -3 | x | 1 | x
CCOC(=O)C(CC)n1cnc2c(cnn2-c2ccc(Cl)cc2)c1=O (stereo unspecified) | x | -7 | x | -12 | x

The results go on.
SMILES | VCAM-1 imaging | FPR ligand | VCAM-1 up imaging | FPRL1 ligand | VCAM-1 inhibition
COc1ccccc1CC(NC(C)=O)C(=O)NC1CCN(c2nnnn2-c2ccccc2)CC1 (stereo unspecified) | i | 6 | i | 10 | i
Cc1nn(C(=O)c2cccs2)c(N)c1-c1ccccc1 | x | -8 | x | -4 | x
COc1ccccc1S(=O)(=O)Cc1ccc(C(=O)NCCN2CCCC2)o1 | x | -3 | x | 0 | x
COc1ccccc1-c1cc(C(=O)NCc2cccs2)no1 | x | 5 | x | -2 | x
COc1ccc(CCNC(=O)C2CCN(S(=O)(=O)c3cccc4nsnc34)CC2)cc1OC | x | -5 | x | 0 | x
CN1CCN(CCCN2c3ccccc3Sc3ccc(C(F)(F)F)cc32)CC1 | i | -3 | i | -5 | i
CC1(C)N=C(C(=O)c2ccccc2)N(O)C1(C)O (stereo unspecified) | x | 0 | x | 1 | x
Oc1[nH]c2ccccc2c1C=NCC1CCCO1 (stereo unspecified) | x | -1 | x | 8 | x
O=C(CN1CCOCC1)Nc1cccc(C(=O)Nc2cccc(C(F)(F)F)c2)c1 | i | -8 | i | -3 | i
Cc1c(Cl)cnc(NC(=O)COC(=O)C(NC(=O)c2ccco2)C(C)C)c1Cl (stereo unspecified) | i | -6 | i | -7 | i
Cn1c(-c2ccc(F)cc2)cnc1NCc1ccccc1 | i | 12 | i | -7 | i
CCNc1ccc(S(=O)(=O)C(F)(F)F)cc1NC(=O)C12CCC(CC1)C2 | i | -8 | i | 3 | i
COc1ccc(-n2c(Cc3cccn3C)nnc2SCC(=O)Nc2ccc(C)c(Cl)c2)cc1 | x | 6 | x | -3 | x
CN(C)C(=O)c1ccc(Oc2ccc(C(=O)N(C)C)cc2)cc1 | x | -2 | x | 4 | x
Cc1ccccc1C(=O)c1cccn1CC(=O)O | x | -2 | x | -10 | x
COc1ccc(-c2cc(C(=O)N3CCN(c4ccccn4)CC3)c3ccccc3n2)cc1 | x | -13 | x | -8 | x
Cc1cccc(NC(=O)CN2CCCN(S(=O)(=O)c3ccc(Br)s3)CC2)c1 | x | 8 | x | 6 | x
CCC1(CC)C(=O)N(C)C(=O)NC1=NCc1ccccc1 | i | 14 | i | 3 | i
CCn1cc(C(=O)NC2CCC(C)CC2)c(=O)c2cc(S(=O)(=O)N3CCCCC3)ccc21 (stereo unspecified) | x | 32* | x | 0 | x
